# TRPML1 ag = qHTS for Agonists of the Human Mucolipin Transient Receptor Potential 1 (TRPML1); TRPML1-expressing cells, Ca2+ dye fluorescence, FDSS; host cell line not named in the record; reference of the full effect not given here; activation, % (test concentration not listed); 410,000 compounds, 0.12% hits; AID 624414, 2012; in the data active = activation above about 50%; inconclusive = about 30% to 50%; inactive = below about 30%; also: 0% is about no effect; the text of the record puts the active cut at 80%
#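 Agonist activity was taken from a 110 s kinetic Ca2+ dye read on the FDSS after pinning compounds onto TRPML1-DL cells. The cells were seeded at 1,500/well with Tet inducer, incubated about 16 h, then dye-loaded at room temperature.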
# PINK1 modulator = A Quantitative High throughput Screen to Identify Chemical Modulators of PINK1 Expression. PINK1 immunofluorescence, high-content cytometry, 24 h. Potency, µM (titrated, usually from 76.6 µM), without a hit: at the top dose activation (PINK1 increase), usual class: activators. 410,000 compounds, 0.2% hits. AID 624263, 2012; active = well fitted activation curve with a large enough effect; inconclusive = small, poorly fitted or top-dose-only effect; inactive = flat fitted curve, though single readings scatter; cell line not stated here;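 also: potency is read from the fitted curve at half-maximal effect; % of control where 0% means no effect; nearly all actives have a fitted effect of over 65% in size; a mitochondrial uncoupler was the plate control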
#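 Readout is PINK1 immunofluorescence, quantified alongside mitochondrial, cell and nuclear markers by laser-scanning microplate cytometry. Cells from a stable line were exposed to compound titrations (5 concentrations) for 24 hours, with CCCP controls.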
# D2 potentiator = Beta-Arrestin HTS for Positive Allosteric Modulators of the Human D2 Dopamine Receptor: Potentiators; D(2) dopamine receptor (Homo sapiens), P14416; DiscoveRx D2 beta-arrestin cells, luminescence, 90 min; 100% = 57 uM dopamine signal; potentiation, % (concentration not given with the values); 360,000 compounds, 0.23% hits; AID 624464, 2012; active = potentiation of 50% or more; inconclusive = 30% to 50%; inactive = 30% or less;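 also: tested on top of an EC20 dose of dopamine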
#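 PathHunter beta-arrestin assay in DiscoveRx D2 cells. Compounds were added with an EC20 of dopamine (50 nM final) for 90 min at 37 deg C. Luminescence was read 1 h after detection reagent, with 57 uM dopamine as the EC100 control.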
# CtBP-E1A inh = qHTS Assay for Inhibitors of the CtBP/E1A Interaction; AlphaScreen GST-E1A/His-CtBP binding, 1536-well; hits give low values; control for the full effect not named in the record; activity change, % (no concentration beside the values); 340,000 compounds, 0.49% hits; AID 651724, 2012; in the data active means activity change below about -65%; inconclusive means about -30% to -65%; inactive means above about -30%; also: % is scaled to controls: 0 for no effect and ±100 for the full control effect
#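 GST-E1A and His-tagged CtBP (125 nM each as 5X stock) were preincubated with pin-transferred compound for 2 h at 37 °C in the dark, then glutathione donor and nickel acceptor beads were added for 1 h before AlphaScreen reading.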
# Six1-Eya2 blk = qHTS Assay for Inhibitors of the Six1/Eya2 Interaction | 360,000 compounds, 0.56% hits | Homeobox protein SIX1 (Homo sapiens) + Protein phosphatase EYA2 (Homo sapiens), … | AlphaScreen GST-Six1/His-Eya2 binding, biochemical; hits give low values; control for the full effect not named in the record | activity change, % (concentration not given with the values); in the data active = activity change below about -65%; inconclusive = about -30% to -65%; inactive = above about -30%; also: % is scaled to controls: 0 for no effect and ±100 for the full control effect
# Target sequence (O00167 whole entry, looked up): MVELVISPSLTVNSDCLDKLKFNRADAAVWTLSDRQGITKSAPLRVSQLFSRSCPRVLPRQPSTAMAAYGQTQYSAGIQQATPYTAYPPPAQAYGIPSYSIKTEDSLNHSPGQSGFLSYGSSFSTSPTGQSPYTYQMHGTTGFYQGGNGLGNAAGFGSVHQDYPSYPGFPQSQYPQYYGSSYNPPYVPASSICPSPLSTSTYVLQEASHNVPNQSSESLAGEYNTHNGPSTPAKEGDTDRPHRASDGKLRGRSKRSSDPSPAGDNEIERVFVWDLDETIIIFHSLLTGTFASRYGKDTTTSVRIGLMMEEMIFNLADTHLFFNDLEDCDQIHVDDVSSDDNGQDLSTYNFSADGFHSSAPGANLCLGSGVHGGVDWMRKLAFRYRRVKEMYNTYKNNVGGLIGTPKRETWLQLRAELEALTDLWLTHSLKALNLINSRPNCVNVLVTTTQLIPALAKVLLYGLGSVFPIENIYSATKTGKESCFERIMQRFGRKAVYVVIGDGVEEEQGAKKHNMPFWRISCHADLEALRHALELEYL
# Target sequence (Q15475 whole entry, looked up): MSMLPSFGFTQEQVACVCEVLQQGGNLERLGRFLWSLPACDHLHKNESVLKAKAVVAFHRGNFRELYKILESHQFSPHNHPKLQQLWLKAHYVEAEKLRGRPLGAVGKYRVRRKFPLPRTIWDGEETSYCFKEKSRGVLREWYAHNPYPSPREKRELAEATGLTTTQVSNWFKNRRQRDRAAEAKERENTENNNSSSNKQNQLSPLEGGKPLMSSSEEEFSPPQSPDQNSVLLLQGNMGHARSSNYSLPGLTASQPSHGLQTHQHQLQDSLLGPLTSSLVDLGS
#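 GST-Six1 + His-Eya2 (5X stock: 250/500 nM); Tris pH 8.0, 300 mM NaCl, 0.05% BSA, 0.02% Tween 20; GSH donor/Ni acceptor beads; 1 h 37 °C dark; AlphaScreen readout.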
# D2 ag = Beta-Arrestin HTS for Positive Allosteric Modulators of the Human D2 Dopamine Receptor: Agonists | D(2) dopamine receptor (Homo sapiens), P14416 | DiscoveRx PathHunter D2 beta-arrestin, luminescence, 90 min; 100% = 57 uM dopamine signal | activation, % (concentration not given with the values) | 360,000 compounds, 0.084% hits; in the data active = activation above about 40%; inconclusive = about 15% to 40%; inactive = below about 15%; also: the text of the record calls up to 30% inactive
#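 Agonist mode: compounds alone added to overnight-plated D2 PathHunter cells for 90 min at 37 C, with 57 uM final dopamine (EC100) defining full response. Beta-arrestin recruitment detected by chemiluminescent reagent, read after 1 h at ambient temperature.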
# Numbers without * were called inactive; u = inconclusive; x = not tested or not shown; & = joins results of further samples; [ ] = another dose, or the depositor's remark.
1. CCN(CC)C(=O)COc1ccc2c(c1)C(=O)CC(C)(C)O2
2. Cn1c(CN2CCCC2)nc2cc(NC(=O)Nc3ccccc3)ccc21
3. COc1ccccc1Cc1c(-c2ccco2)nc2ccc(Br)cn12
4. COc1ccc2cc(-c3ccccc3F)ncc2c1
5. CC(NC(=O)c1ccc(Cl)c(Cl)c1)c1ccc(-c2ccccc2)cc1 (configuration not stated)
6. CC(=O)c1cccc(NC(=O)C(C)N2CCc3ccccc3C2)c1 (configuration not stated)
7. Cc1nn(Cc2ccccc2)c(C)c1NC(=O)c1cccs1
8. COc1ccc(C(=O)N2CCC(C(=O)NC3CC3)CC2)cc1

screen / no.	1	2	3	4	5	6	7	8
TRPML1 ag	0.5	0.5	-0.2	0.0	1.6	1.0	0.5	0.3
PINK1 modulator	0.9%	1.2%[38.3 µM]	-0.2%	0.2%	8.7%	1.1%	-4.2%	-0.8%
D2 potentiator	-11	-33	-8	-7	-11	-3	7	3
CtBP-E1A inh	x	-2	-5	22	x	2	-9	1
Six1-Eya2 blk	4	-2	u	18	6	1	-8	3
D2 ag	-3.4	-1.6	-4.0	0.3	3.0	3.0	-4.0	-0.8

9. O=C(CCN1C(=O)COc2ccccc21)NCCCN1CCN(c2ccccc2F)CC1
10. O=C(NC1CCN(C(=O)Nc2ccc(F)cc2)CC1)c1ccc(F)cc1
11. Cc1ccc(C)c(C(=O)COC(=O)c2cc([N+](=O)[O-])ccc2N2CCOCC2)c1
12. O=C1C(=Cc2ccccc2O)SC(=S)N1CCCN1CCOCC1
13. CCOC(=O)CCSCC(=O)Nc1cc(C)on1
14. COc1ccc(C2=NOC(C(=O)NCCCn3ccnc3)C2)cc1 (configuration not stated)
15. CCN(CC)S(=O)(=O)c1cc(C(=O)Nc2cccnc2)ccc1Cl
16. NC(=O)C1(N2CCCCC2)CCN(C(=O)NC23CC4CC(CC(C4)C2)C3)CC1

screen / no.	9	10	11	12	13	14	15	16
TRPML1 ag	0.2	-1.0	1.0	0.0	-1.1	2.4	-0.7	1.7
PINK1 modulator	x	-0.7%	-2.4%	3.2%	0.7%	-2.8%	u	-3.8%
D2 potentiator	-14	-10	-13	-7	-11	8	-15	-2
CtBP-E1A inh	8	3	-5	4	-2	-5	42	-9
Six1-Eya2 blk	1	-8	0	-22	7	8	25	12
D2 ag	14	-1.2	-3.5	-2.4	-0.9	-0.9	-1.8	-2.9

17. CNc1nc2c(c(=O)[nH]c(=O)n2C)n1CCCc1ccccc1
18. Cc1cccc(-n2[nH]c3c4c(ccc3c2=O)C(=O)c2ccccc2C4=O)c1
19. CC(C)N(C(=O)c1ccc(-c2ccccc2F)cc1)C(C)C
20. c1ccc2c(c1)nc1n2CCS1
21. O=C1C(=O)N(CCN2CCOCC2)C(c2ccccn2)/C1=C(/O)c1ccccc1 (configuration not stated)
22. Cc1cc2c(cc1S(=O)(=O)NCc1ccccc1)NC(=O)CO2
23. COc1ccc(C(=O)N2CCOC23CCN(c2ncccn2)CC3)cc1
24. Cc1cc(C)n2nc(SCC(=O)NC3CCCCC3C)nc2n1 (configuration not stated)

screen / no.	17	18	19	20	21	22	23	24
TRPML1 ag	-0.2	-0.9	1.0	-0.6	0.7	-0.2	-0.5	-0.8
PINK1 modulator	4.4%	-2.6%	2.0%	-0.4%	-0.7%	1.6%	-0.2%	1.8%
D2 potentiator	3	11	-2	-22	3	-3	4	2
CtBP-E1A inh	5	-28	7	3	0	10	-26	x
Six1-Eya2 blk	-1	-8	4	13	-12	-1	-14	-4
D2 ag	-1.5	-1.2	3.8	-2.5	3.3	-0.9	-0.3	-4.2

# In the list so far, two contain an NH in an aromatic ring:
17. CNc1nc2c(c(=O)[nH]c(=O)n2C)n1CCCc1ccccc1
18. Cc1cccc(-n2[nH]c3c4c(ccc3c2=O)C(=O)c2ccccc2C4=O)c1

screen / no.	17	18
TRPML1 ag	-0.2	-0.9
PINK1 modulator	4.4%	-2.6%
D2 potentiator	3	11
CtBP-E1A inh	5	-28
Six1-Eya2 blk	-1	-8
D2 ag	-1.5	-1.2

# Following part:
25. CCOc1ccc(NC(=O)CC(NC(C)=O)c2ccccc2)cc1S(=O)(=O)N1CCCC1 (configuration not stated)
26. COc1ccccc1C1/C(=C(\O)c2ccc3c(c2)OCCO3)C(=O)C(=O)N1Cc1cccnc1 (configuration not stated)
27. O=C(NC1CCCCC1)c1ccc(-c2ccccc2[N+](=O)[O-])o1
28. CC1Cc2[nH]c(=S)[nH]c(=O)c2C(c2ccc(F)cc2)O1 (configuration not stated)
29. Cc1cccc(NC(=S)N(Cc2ccc(Cl)cc2)Cc2ccc(C(=O)O)cc2)c1
30. O=[N+]([O-])c1ccc(S(=O)(=O)NN=Cc2ccc3c(c2)OCO3)cc1
31. Cc1ccccc1CSc1nnc(-c2ccccn2)n1N
32. O=C(NCCCN1CCOCC1)c1cc(Cl)ccc1OCc1ccccc1

screen / no.	25	26	27	28	29	30	31	32
TRPML1 ag	0.1	0.3	1.6	-0.3	-0.3	1.7	0.5	1.4
PINK1 modulator	0.3%	0.3%	-0.4%	-0.5%	1.9%	2.4%	5.9%	-1.0%
D2 potentiator	-38	-13	-18	x	-3	-5	-1	-39
CtBP-E1A inh	x	x	-17	3	-9	-9	-24	12
Six1-Eya2 blk	1	-2	-9	0	6	0	-20	1
D2 ag	-4.3	-2.0	1.9	x	-3.5	0.2	4.8	-6.8

33. O=c1cc(-c2ccccc2)nc(SCc2ccccc2)[nH]1
34. O=C(COC(=O)c1cc2ccccc2cc1O)NC1CCCCC1
35. Cc1cc([N+](=O)[O-])ccc1-c1ccc(/C=N/NC(=O)c2ccc(Br)o2)o1
36. CCNC(=O)COC(=O)CNC(=O)c1cc(Cl)cc([N+](=O)[O-])c1
37. CCN1CCN(C(=O)c2cc(COc3ccc(C(C)=O)cc3OC)on2)CC1
38. CC(C)CC(=O)NCCCN1CCN(CCCNC(=O)CC(C)C)CC1
39. COc1ccc(/C=C/C(=O)Nc2cccnc2)cc1OC
40. CCN(CC)S(=O)(=O)c1ccc2oc(C(=O)NC3CC3)c(C)c2c1

screen / no.	33	34	35	36	37	38	39	40
TRPML1 ag	0.0	1.1	0.6	0.4	-0.4	0.0	-0.4	0.1
PINK1 modulator	-0.2%	8.0%	u	1.0%	-0.1%	15%[38.3 µM]	-0.3%	-0.5%
D2 potentiator	5	-12	4	-3	-12	-13	-5	-1
CtBP-E1A inh	11	3	-1	-3	6	10	x	4
Six1-Eya2 blk	-2	-2	0	7	-2	5	1	7
D2 ag	-2.9	-2.1	5.6	-4.5	-0.6	-2.1	1.6	-1.1

41. CC(C)C(OC(=O)c1nsc(Cl)c1Cl)C(=O)NCc1ccccc1 (configuration not stated)
42. Cc1ccc(C)c(N2CCN(C(=O)c3cc4sccc4n3C)CC2)c1
43. O=C(Nc1ccc(C(=O)O)cc1)/C(=C\c1ccc2c(c1)OCO2)NC(=O)c1ccc(Br)cc1
44. COc1ccc(C(=O)Nc2ccc(C(=O)OCC(=O)c3ccccc3)cc2)cc1
45. Cc1cccc(-n2ncc3c2CCCC3NC(=O)c2cccs2)c1C (configuration not stated)
46. COC(=O)c1cccc2c(C(=O)O)cc(-c3ccccc3)nc12
47. COc1cc(CNc2ccc(C)c(C)c2)cc(OC)c1OC
48. CC(=O)c1c(C)[nH]c(C(=O)COC(=O)COc2ccccc2F)c1C

screen / no.	41	42	43	44	45	46	47	48
TRPML1 ag	0.2	1.3	0.7	0.5	-0.5	0.6	2.4	0.6
PINK1 modulator	-0.3%	u	-0.6%	0.1%	1.6%	-5.3%	u	-1.9%
D2 potentiator	-5	-11	-6	-4	-13	-10	-3	-7
CtBP-E1A inh	3	-2	-7	0	-3	3	-13	x
Six1-Eya2 blk	2	u	-5	6	1	-4	u	3
D2 ag	4.5	-5.1	-3.5	-2.8	-0.1	-4.3	-0.8	-3.5

# Three entries drawn at random from those above:
48. CC(=O)c1c(C)[nH]c(C(=O)COC(=O)COc2ccccc2F)c1C
44. COc1ccc(C(=O)Nc2ccc(C(=O)OCC(=O)c3ccccc3)cc2)cc1
47. COc1cc(CNc2ccc(C)c(C)c2)cc(OC)c1OC

screen / no.	48	44	47
TRPML1 ag	0.6	0.5	2.4
PINK1 modulator	-1.9%	0.1%	u
D2 potentiator	-7	-4	-3
CtBP-E1A inh	x	0	-13
Six1-Eya2 blk	3	6	u
D2 ag	-3.5	-2.8	-0.8

# Other results:
49. CCCCNC(=S)NNC(=O)c1ccncc1
50. C[C@H](CO)NC(=O)[C@H](C)[C@@H]1C[C@@]1(C)[C@@H](NC(=O)OCc1ccccc1)c1ccccc1
51. CCOCc1nnc(NC(=O)CCC2CCCCC2)s1
52. Cc1ccc(C)c(C(O)c2ncc(-c3ccc(C(F)(F)F)cc3)[nH]2)c1 (configuration not stated)
53. CN(CC(O)Cn1cnc2c1c(=O)n(C)c(=O)n2C)c1ccccc1 (configuration not stated)
54. CSc1nc2c(=S)[nH]c(=S)[nH]c2s1
55. Cc1cccc(OCc2nc(C)cc(=O)[nH]2)c1
56. CCc1ccc2oc(-c3ccc(OC)cc3)cc(=Nc3c(C)n(C)n(-c4ccccc4)c3=O)c2c1

screen / no.	49	50	51	52	53	54	55	56
TRPML1 ag	0.2	-0.4	0.6	0.2	-0.7	-0.2	-0.6	1.8
PINK1 modulator	2.8%	-1.4%	0.8%	5.6%	0.3%	0.8%	1.1%	u
D2 potentiator	-9	-5	-6	-4	-3	-20	-10	-2
CtBP-E1A inh	4	8	-1	-8	-4	u	0	-11
Six1-Eya2 blk	-1	1	-3	-2	6	-7	0	-25
D2 ag	0.3	-0.5	3.5	-1.2	-5.5	-10	-2.3	-1.0

57. Fc1ccc(Cn2ccc(-c3cnc(-c4ccccc4)s3)n2)cc1
58. CC(=O)Nc1ccc(NC(=O)CCCSc2nc3ccccc3[nH]2)cc1
59. COc1ccc(Cn2c(CCC(=O)Nc3ccccc3OC)nc3cccnc32)cc1
60. CCCC(=O)N1CCCC1(C)C(=O)Nc1cccc(OC(C)C)c1 (configuration not stated)

screen / no.	57	58	59	60
TRPML1 ag	5.1	-0.4	1.8&0.2	-0.5
PINK1 modulator	4.6%	-2.5%	-0.5%&2.6%	1.7%
D2 potentiator	-5	4	-8	2
CtBP-E1A inh	22	-9	1	3
Six1-Eya2 blk	26	8	9	0
D2 ag	1.7	0.8	1.1	-3.0

# Assay outcomes from PubChem BioAssay.
